Mtb MenB inh: inhibitors of Mycobacterium tuberculosis MenB enzyme; P9WNP5; MenB enzyme assay, absorbance read-out; some hits fall short of the stated cut; inhibition, %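 (about 12 µg/mL by stock and volumes)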; hit rate 0.43% among 100,000;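 active = mean of two replicates above 30%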;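 note: 0% = no compound and 100% = wells with inactive enzyme; the first replicate is given; strong numbers were not always called active; inactives centre near -10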
MbtI inh: inhibitors of Mycobacterium tuberculosis siderophore enzyme MbtI; P9WFX0; purified MbtI enzyme, fluorescence intensity read-out; inhibition, %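 (about 17 µg/mL by stock and volumes)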; hit rate 0.89% among 100,000; AID 493033;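 active = above 50% in both replicates, above 80% if mildly self-fluorescent; inactive = the rest, strongly fluorescent compounds included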;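 note: 0% = mean of negative and 100% = mean of positive controls; one replicate is shown; some compounds called inactive have numbers as strong as hits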
Target sequence (P9WFX0 whole entry, looked up): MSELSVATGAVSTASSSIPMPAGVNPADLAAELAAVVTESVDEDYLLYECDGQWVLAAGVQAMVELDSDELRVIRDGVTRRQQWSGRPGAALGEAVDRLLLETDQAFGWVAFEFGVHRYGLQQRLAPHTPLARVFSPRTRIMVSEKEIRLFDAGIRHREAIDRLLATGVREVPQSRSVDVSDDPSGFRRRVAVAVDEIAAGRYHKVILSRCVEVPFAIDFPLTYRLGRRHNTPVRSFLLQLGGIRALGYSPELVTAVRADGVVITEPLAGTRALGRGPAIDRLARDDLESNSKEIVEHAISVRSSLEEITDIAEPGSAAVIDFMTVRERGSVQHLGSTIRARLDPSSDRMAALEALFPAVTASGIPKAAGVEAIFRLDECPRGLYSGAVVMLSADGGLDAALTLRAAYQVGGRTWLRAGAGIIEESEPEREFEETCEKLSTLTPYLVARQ
PV pol inh: inhibitors of poliovirus RNA polymerase binding and polymerization | hit rate 0.66% among 150,000 | AID 588519 | % elongation, % (compound at 16.7 µg/mL) | poliovirus polymerase elongation, fluorescence polarization; active compounds read low | P03300; in the data active = % elongation below about 90%; note: some results filed as inactive read as strong as hits
Target sequence (P03300 1749-2209 limits assumed): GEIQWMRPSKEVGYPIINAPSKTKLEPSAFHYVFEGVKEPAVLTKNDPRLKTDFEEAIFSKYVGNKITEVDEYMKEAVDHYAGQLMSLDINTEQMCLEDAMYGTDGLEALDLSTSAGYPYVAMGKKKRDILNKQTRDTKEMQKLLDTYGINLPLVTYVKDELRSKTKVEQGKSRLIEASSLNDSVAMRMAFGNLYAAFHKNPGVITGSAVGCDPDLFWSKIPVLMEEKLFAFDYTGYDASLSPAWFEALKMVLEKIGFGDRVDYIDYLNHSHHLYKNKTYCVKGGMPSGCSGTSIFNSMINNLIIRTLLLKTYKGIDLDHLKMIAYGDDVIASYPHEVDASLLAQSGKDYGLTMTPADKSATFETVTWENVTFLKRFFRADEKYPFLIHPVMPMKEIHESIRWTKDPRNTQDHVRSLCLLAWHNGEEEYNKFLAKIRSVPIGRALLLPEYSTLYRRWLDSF
PV pol inh intensity: second read-out of PV pol inh, no call of its own (marks repeat the call); % elongation; measured here: total intensity read-out; formula for this scale not given here;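 total fluorescence in place of polarization; lower means less elongation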
* marks the source's active call; other numbers are inactive results; x = not tested or not shown.

Letters – A = Mtb MenB inh; B = MbtI inh; C = PV pol inh; D = PV pol inh intensity
COc1cccc(C(N)=O)c1OCC(=O)N(C1CCCCC1)C1CCCCC1
  A: -22	B: -16	C: 105	D: 100

NS(=O)(=O)c1ccc(NC(=O)CN2CCCCCC2)cc1
  A: 0	B: -12	C: 104	D: 106

CCOC(=O)c1ccc2c(c1)sc1nc(-c3ccc(C)cc3C)cn12
  A: -7	B: 57	C: 105	D: 105

CCN=C1SC(CC(=O)Nc2sc(C)c(C)c2C(=O)OCC)C(=O)N1CC (stereo unspecified)
  A: -3	B: 6	C: 101	D: 104

O=C(O)C1CSC2(C(=O)O)CCC(=O)N12 (stereo unspecified)
  A: 11	B: 18	C: 98	D: 92

Nc1ccnn1CC1CCCCC1
  A: 10	B: -2	C: 101	D: 97

CCOc1ncccc1C(=O)OCc1cc(=O)n2cc(Br)ccc2n1
  A: -21	B: 0	C: 106	D: 101

CC(=O)Nc1cc(Cl)ccc1Nc1ccccc1
  A: x	B: -1	C: 102	D: 107

COc1ccc(/C=C(/NC(=O)c2ccccc2)C(=O)N2CC3(C)CC2CC(C)(C)C3)cc1 (stereo unspecified)
  A: -3	B: 8	C: 104	D: 108

CSc1ccccc1NC(=O)CC1Nc2ccccc2NC1=O (stereo unspecified)
  A: -35	B: 15	C: 102	D: 100

Cc1cc(C)cc(N2CC34C=CC(O3)C(C(=O)OCC(=O)NC3CCCC3)C4C2=O)c1 (stereo unspecified)
  A: -12	B: -10	C: 103	D: 105

CNC(=O)c1sc(Nc2ccc(OC)cc2)nc1C
  A: -4	B: -5	C: 98	D: 109

Cc1nn(CCCC(=O)O)c(=O)c2c1sc1ccccc12
  A: 1	B: 105	C: 102	D: 106

NC(=O)c1ccc(NC(=O)c2ccccc2C(=O)O)cc1
  A: -20	B: -11	C: 102	D: 100

O=C1NC(c2ccco2)Nc2ccccc21 (stereo unspecified)
  A: -11	B: 90	C: 103	D: 107

Later entries
Letters – A = Mtb MenB inh; B = MbtI inh; C = PV pol inh; D = PV pol inh intensity
CN(C)CCCNc1nc(-c2cccnc2)nc2ccccc12
  A: -16	B: 12	C: 105	D: 97

OCc1ccccc1CNc1ccc(F)cc1
  A: 5	B: -8	C: 101	D: 101

Cc1cc(=O)oc2cc(OCC(=O)c3cccs3)ccc12
  A: -14	B: 3	C: 102	D: 98

Cc1ccc2oc(-c3ccc4c(c3)OCO4)cc(=NC(C)C(=O)O)c2c1 (stereo unspecified)
  A: -113	B: -6	C: 100	D: 92

Cc1ccc(CCP(=O)(O)CCc2ccc(C)nc2)cn1
  A: -21	B: x	C: 113	D: 110

Nc1cc2c(cc1Cl)OCCO2
  A: 23	B: 2	C: 99	D: 102

O=C(O)c1ccccc1C(=O)NCCc1ccccc1
  A: -5	B: -16	C: 102	D: 101

Cc1ccc(CNCCc2cccs2)s1
  A: 1	B: -8	C: 99	D: 102

COc1ccc(-c2cn3c(C)c(C(=O)N4CCc5ccccc54)sc3n2)cc1
  A: -18	B: -14	C: 100	D: 99

Cc1nc(SC(C)C(=O)NC2(C#N)CCCCC2)c2ccccc2n1 (stereo unspecified)
  A: -20	B: 3	C: 101	D: 103

FC(F)(F)c1cc(-c2ccc3ccccc3c2)nn1C(=S)N1CCOCC1
  A: -3	B: -7	C: 102	D: 105

OC(CNCc1cn(-c2ccccc2)nc1-c1cccs1)CN1CCOCC1 (stereo unspecified)
  A: -13	B: 36	C: 98	D: 93

Cc1nc2ccccc2c2oc(C(=O)N3CCC(C)CC3)cc12
  A: -4	B: -5	C: 98	D: 101

CCOC(=O)C1=C(C)N2CCN=C2S1
  A: -3	B: -4	C: 102	D: 106

CCOC(=O)c1ccccc1NC(=O)Cn1c(-c2cccs2)noc1=O
  A: -17	B: 5	C: 103	D: 106

Some of the entries above, reformatted.
Below each compound – Mtb MenB inh	MbtI inh	PV pol inh	PV pol inh intensity
O=C(O)C1CSC2(C(=O)O)CCC(=O)N12 (stereo unspecified)
    11	18	98	92
Nc1ccnn1CC1CCCCC1
    10	-2	101	97
CCOc1ncccc1C(=O)OCc1cc(=O)n2cc(Br)ccc2n1
    -21	0	106	101
CC(=O)Nc1cc(Cl)ccc1Nc1ccccc1
    x	-1	102	107
COc1ccc(/C=C(/NC(=O)c2ccccc2)C(=O)N2CC3(C)CC2CC(C)(C)C3)cc1 (stereo unspecified)
    -3	8	104	108

Remaining list, next part.
Letters – A = Mtb MenB inh; B = MbtI inh; C = PV pol inh; D = PV pol inh intensity
CCn1c(CSc2nnc3ccccn23)nc2cc(S(=O)(=O)N(C)C)ccc21
  A: 3	B: 18	C: 100	D: 106

O=C(Nc1ccccc1N1CCN(c2ccccc2)CC1)c1ccccc1
  A: 5	B: 8	C: 102	D: 105

O=C(CCN1Cc2ccccc2C1)c1ccc2c(c1)OCCO2
  A: -9	B: x	C: 100	D: 106

CCC(CC)c1nnc(NC(=O)Cc2csc(C)n2)s1
  A: 1	B: -11	C: 101	D: 105

Cc1ccc(S(=O)(=O)C2(C(=O)N3CCN(c4ccccc4)CC3)CC2)cc1
  A: -4	B: -8	C: 103	D: 102

O=C(Cc1ccc(CC(=O)c2ccccc2)cc1)c1ccccc1
  A: -9	B: -2	C: 103	D: 108

O=C(NCc1nc2ccccc2[nH]1)c1ccc(S(=O)(=O)N2CCCC2)cc1
  A: -1	B: -10	C: 107	D: 111

O=C1CC(Cc2ccccc2)C(=O)N1c1cccc(C(F)(F)F)c1 (stereo unspecified)
  A: -5	B: x	C: 101	D: 103

Cn1cc(S(=O)(=O)NCC2CCCO2)c(=O)n(C)c1=O (stereo unspecified)
  A: -1	B: -2	C: 104	D: 110

CC(C)N(C(C)C)S(=O)(=O)c1ccc(NCCc2ccc(S(N)(=O)=O)cc2)nc1
  A: 17	B: -33	C: 104	D: 97

O=C(O)c1ccc2c(c1)nc1n2CCCC1
  A: -15	B: -4	C: 103	D: 103

CC1=C(C(=O)N(C)C)C(c2cccs2)NC(=O)N1 (stereo unspecified)
  A: -1	B: x	C: 106	D: 119

Cc1[nH]nc2c1C(C(C)C)C(C#N)=C(N)O2 (stereo unspecified)
  A: -14	B: x	C: 105	D: 109

COc1cc(C(=O)/C=C/Nc2cc(C)ccc2O)cc(OC)c1OC
  A: -205	B: 0	C: 109	D: 108

CC(C)c1cc(N)cc(C(C)C)c1O
  A: -41	B: 24	C: 100	D: 101

(further entries)
Letters – A = Mtb MenB inh; B = MbtI inh; C = PV pol inh; D = PV pol inh intensity
O=C(O)/C=C\C(=O)N1CCN(Cc2ccc3c(c2)OCO3)CC1
  A: -1	B: x	C: 106	D: 111

COc1ccc(C(=O)OCC(=O)Nc2ccc(N(C)C)cc2)cc1
  A: 10	B: 3	C: 102	D: 103

Cc1ccc(C2C=C(c3ccccc3)NC(=O)C2C#N)cc1 (stereo unspecified)
  A: -12	B: x	C: 101	D: 112

O=C1[C@H]2CSC3(C(=O)c4ccccc4C3=O)N2C(=O)[C@H]2CSC3(C(=O)c4ccccc4C3=O)N12
  A: -5	B: 100*	C: 99	D: 98

CC(N=C1NC(C)(C)Cc2ccccc21)C(=O)O (stereo unspecified)
  A: -61	B: -11	C: 105	D: 97

COc1ccc(OC)c2c(C)cc(Cl)nc12
  A: -7	B: x	C: 99	D: 103

CNC(=O)Nc1c[nH]c2cc(Cl)ccc2c1=O
  A: -31	B: 90	C: 100	D: 101

Cc1ccc2nc(C(F)(F)F)cc(N3CCN(/C=C(/C#N)S(=O)(=O)c4ccccn4)CC3)c2c1
  A: -7	B: 1	C: 106	D: 100

CC1CC(C)CN(S(=O)(=O)c2ccc(NC(=O)CNC(=O)c3ccco3)cc2)C1 (stereo unspecified)
  A: -29	B: -8	C: 107	D: 94

O=C(O)C12CC3CC(C1)CC(n1ncc(NCc4ccc5c(c4)OCO5)c(Cl)c1=O)(C3)C2
  A: -3	B: 4	C: 104	D: 103

CC1=C(C(=O)Nc2ccc(C)cc2)C(c2ccc(C)o2)C2=C(CC(C)(C)CC2=O)N1 (stereo unspecified)
  A: -17	B: -223	C: 103	D: 102

Oc1ccc(N=Cc2ccc(F)c(F)c2)cc1N=Cc1ccc(F)c(F)c1
  A: x	B: -5	C: 96	D: 92

O=C(CC(SCc1ccco1)c1ccc(O)cc1)c1ccco1 (stereo unspecified)
  A: -4	B: -1	C: 101	D: 106

COC(=O)C1=C(C)Nc2ncnn2C1/C=C/c1ccccc1 (stereo unspecified)
  A: -29	B: 5	C: x	D: x

Cc1nn(Cc2ccc(C(=O)Sc3ccc(C(F)(F)F)cn3)o2)c(C)c1Br
  A: 9	B: 86*	C: 104	D: 96

(list continues)
Letters – A = Mtb MenB inh; B = MbtI inh; C = PV pol inh; D = PV pol inh intensity
FC(F)(F)c1cccc(N2CCN(CCN3CCOCC3)CC2)c1
  A: -7	B: -11	C: 102	D: 100

N#CC1=C(CBr)NC(CBr)=C(C#N)C12CCCCC2
  A: x	B: -7	C: 99	D: 102

Cc1ccc(Oc2cc(C)nc(-c3ccccc3O)n2)cc1
  A: x	B: -17	C: 101	D: 106

CCN(CC)S(=O)(=O)c1cccc(C(=O)NC(C)C(c2cccs2)N2CCCC2)c1 (stereo unspecified)
  A: -4	B: 11	C: 104	D: 104

COC(=O)C(Cc1ccccc1)NC(=O)c1n[nH]c(=O)c2ccccc12 (stereo unspecified)
  A: -13	B: 27	C: x	D: x

CCC(CC)C(=O)N1CC(=O)Nc2ccc(F)cc2C1c1ccccc1 (stereo unspecified)
  A: 11	B: -7	C: 102	D: 100

COC(=O)c1c(NC(=O)c2ccc(C)cc2)sc(C)c1C
  A: -4	B: 59	C: 101	D: 94

O=C(Nc1cccc(-c2csnn2)c1)c1cccs1
  A: 1	B: 2	C: 100	D: 102

COc1cc2c(cc1OC)C1CN3CCc4cc(OC)c(OC)cc4C3CN1CC2 (stereo unspecified)
  A: -12	B: 2	C: 104	D: 99

COc1ccc(CNC(=O)c2ccc(CNC(N)=O)cc2)cc1
  A: -21	B: 3	C: 105	D: 107

O=C(NCc1ccccc1)c1ccc2nc3ccccc3c(=O)n2c1
  A: -8	B: 25	C: 103	D: 101

N#C/C(=C/c1cn(-c2ccccc2)nc1-c1cc2ccccc2o1)S(=O)(=O)c1ccc(Cl)cc1
  A: -5	B: -6	C: 100	D: 101

Cc1cc(C)nc(N/C=C(\C#N)C(=O)c2ccoc2C)n1
  A: -3	B: -2	C: 102	D: 104

COc1ccc(C(=O)c2c(C(F)(F)F)oc3c2C(=O)c2ccccc2C3=O)cc1OC
  A: -15	B: -6	C: 96	D: 99

CN1C(=O)C(C)(C)c2cc(S(=O)(=O)N3CCCC3C(=O)NCc3ccc(F)cc3)ccc21 (stereo unspecified)
  A: -3	B: -10	C: 103	D: 99

Sorted by length of the SMILES (lowest first): some entries from above
Letters – A = Mtb MenB inh; B = MbtI inh; C = PV pol inh; D = PV pol inh intensity
FC(F)(F)c1cccc(N2CCN(CCN3CCOCC3)CC2)c1
  A: -7	B: -11	C: 102	D: 100

O=C(NCc1ccccc1)c1ccc2nc3ccccc3c(=O)n2c1
  A: -8	B: 25	C: 103	D: 101

CCC(CC)C(=O)N1CC(=O)Nc2ccc(F)cc2C1c1ccccc1 (stereo unspecified)
  A: 11	B: -7	C: 102	D: 100

COc1cc2c(cc1OC)C1CN3CCc4cc(OC)c(OC)cc4C3CN1CC2 (stereo unspecified)
  A: -12	B: 2	C: 104	D: 99

CCN(CC)S(=O)(=O)c1cccc(C(=O)NC(C)C(c2cccs2)N2CCCC2)c1 (stereo unspecified)
  A: -4	B: 11	C: 104	D: 104

CN1C(=O)C(C)(C)c2cc(S(=O)(=O)N3CCCC3C(=O)NCc3ccc(F)cc3)ccc21 (stereo unspecified)
  A: -3	B: -10	C: 103	D: 99

N#C/C(=C/c1cn(-c2ccccc2)nc1-c1cc2ccccc2o1)S(=O)(=O)c1ccc(Cl)cc1
  A: -5	B: -6	C: 100	D: 101

The results go on:
Letters – A = Mtb MenB inh; B = MbtI inh; C = PV pol inh; D = PV pol inh intensity
O=C(CCC1CCCC1)NCc1ccccn1
  A: -35	B: -11	C: 98	D: 101

Cc1cc(=O)oc2cc(OC(=O)/C=C/c3ccccc3)ccc12
  A: 2	B: x	C: 97	D: 102

Cc1ccc(OCc2nnc(SCC(=O)N(C)Cc3ccc(Cl)s3)n2N)c(C)c1
  A: -33	B: 5	C: 102	D: 97

Cc1ccc(-c2nc3ccccc3o2)cc1NC(=O)c1ccc2c(c1)OCO2
  A: -19	B: -29	C: 99	D: 103

O=C(O)c1ccccc1OCCOc1ccccc1
  A: x	B: -2	C: 101	D: 104

Cc1ccc2cc(C#N)c(SCC(=O)Nc3ccccc3)nc2c1
  A: 0	B: -9	C: 101	D: 101

COC(=O)c1cn(Cc2cc(OC)ccc2OC)cc(F)c1=O
  A: 17	B: 3	C: 102	D: 100

Cc1oc2cc(O)ccc2c(=O)c1Oc1ccc(Cl)cc1
  A: 4	B: -63	C: 106	D: 105

Cc1onc(-c2c(Cl)cccc2Cl)c1C(=O)N=C(N)N1CCCC1
  A: -6	B: -6	C: 104	D: 108

CC(NC(=O)C1CCCC1)c1ccccc1 (stereo unspecified)
  A: -5	B: 0	C: 103	D: 101

O=C(NCCCO)c1ccc(CSc2nc3ccccc3c(=O)[nH]2)cc1
  A: 22	B: 96	C: 102	D: 101

O=C(COC(=O)c1cc(=O)[nH]c2ccccc12)NCc1ccco1
  A: -7	B: -76	C: x	D: x

O=c1cc(NCc2ccccc2)nc2ccccn12
  A: -4	B: 23	C: 98	D: 103

Nc1ccc(N2CCCCC2)cc1N1CCCCC1
  A: 18	B: x	C: 105	D: 112

O=C(NC1CCCC1)C(c1ccc(Cl)cc1)N1CCCCC1 (stereo unspecified)
  A: 10	B: 0	C: 101	D: 104

CC12CCC(=O)N1c1ccccc1C(=O)N2c1ccc(F)cc1 (stereo unspecified)
  A: 6	B: -2	C: 98	D: 94
